High-throughput results deposited in PubChem by National Center for Advancing Translational Sciences (NCATS).
gsp ag – activates gsp, the McCune-Albright syndrome mutation; Potency, µM (doses to about 76.9 µM), for the others: at the top dose activation (cAMP increase), hits mostly activators; 340,000 compounds, 0.13% hits; AID 624287; gsp mutant cells, cAMP HTRF, 30 min; control for the full effect not named in the record; active = well fitted activation curve with a large enough effect; inconclusive = small, poorly fitted or top-dose-only effect, or another doubt; inactive = no such curve, though single readings can be large or run the other way; cell line not stated here;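 further: phosphodiesterase inhibitor Ro 20-1724 added with compounds to block cAMP breakdown; potency means the concentration at half of the fitted maximal effect; nearly all actives have a fitted effect of over 60% in size; about a fifth of the inactives were tested at one dose only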
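Cells in DMEM/10% FBS with G418 were pretreated with compounds in DMSO plus […] (300 uM stock) for 30 min at 37C. cAMP was measured by HTRF (cAMP-d2 plus anti-cAMP antibody-K) after 30 min at room temperature.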
D2 ag – agonists of human D2 dopamine receptor (beta-arrestin); P14416; DiscoveRx PathHunter D2 beta-arrestin, luminescence, 90 min; 100% = 57 uM dopamine signal; activation, % (concentration not given with the values); 360,000 compounds, 0.084% hits; AID 624465; in the data active = activation above about 40%; inconclusive = about 15% to 40%; inactive = below about 15%; further: the text of the record calls up to 30% inactive
Target sequence (P14416 whole entry, looked up): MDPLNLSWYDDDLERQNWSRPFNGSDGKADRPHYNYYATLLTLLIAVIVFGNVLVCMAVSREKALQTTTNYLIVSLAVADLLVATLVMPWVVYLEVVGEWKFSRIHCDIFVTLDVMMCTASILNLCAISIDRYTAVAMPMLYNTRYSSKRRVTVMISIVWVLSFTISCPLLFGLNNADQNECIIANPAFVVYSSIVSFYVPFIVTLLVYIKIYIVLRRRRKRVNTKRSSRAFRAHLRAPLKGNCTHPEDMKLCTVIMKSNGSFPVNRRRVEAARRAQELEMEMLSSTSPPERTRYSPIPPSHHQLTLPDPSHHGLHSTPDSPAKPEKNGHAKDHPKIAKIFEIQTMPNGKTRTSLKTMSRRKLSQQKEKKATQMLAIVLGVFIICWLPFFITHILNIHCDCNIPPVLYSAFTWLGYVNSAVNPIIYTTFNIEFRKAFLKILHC
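DiscoveRx PathHunter D2 beta-arrestin cells (2,100/well) attached overnight, then compound-stimulated 90 min at 37 C in HBSS/10 mM HEPES/0.1% Tween-20 buffer; beta-galactosidase complementation read by luminescence after 1 h at ambient temperature. Dopamine 57 uM final (EC100) as control.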
Sfp PPTase inh – blocks B. subtilis Sfp PPTase activity. 310,000 compounds, 3.5% hits. AID 1490. Biochemical Sfp PPTase activity, qHTS. Potency, µM, for the others: max response, negative = inhibition, hits mostly inhibitors; active means well fitted inhibition curve with a large enough effect; inconclusive means small, poorly fitted or top-dose-only effect, or another doubt; inactive means no such curve, though single readings can be large or run the other way;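 further: the enzyme is Sfp with the accession as filed and its product quenches rhodamine fluorescence; potency means the concentration at half of the fitted maximal effect; 0% = enzyme reaction without inhibitor and -100% = no enzyme wells; top concentration of the series not given in the record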
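Fluorescence-quenching assay with 15 nM Sfp, 5 uM rhodamine-CoA and 12.5 uM BHQ-2-labelled ybbR peptide in pH 7.6 Hepes/MgCl2 buffer. Enzyme was pre-incubated with compound for 15 min at room temperature. Rate was taken from the 30-min fluorescence change (525/598 nm).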
Menin MLL FP FL – displaces fluorescein MLL peptide from human menin | Fluorescence polarization, fluorescein-MLL peptide displacement from menin | FP activity change, % at 61.4 µM | 290,000 tested, under 10 active | AID 1766; inconclusive = falling polarisation curve, or a change in total fluorescence; inactive = total fluorescence flat and polarisation flat or rising; no compound was filed as active; the % refers to the polarisation; negative = inhibition;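 further: % of control where 0% means no effect; inhibitors lower the polarisation; unlabelled MLL peptide was the positive control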
PINK1 modulator – PINK1 expression modulation; 410,000 compounds, 0.2% hits; AID 624263; PINK1 immunofluorescence, high-content cytometry, 24 h; Potency, µM (top dose mostly 76.6 µM), for the others: at the top dose activation (PINK1 increase), actives largely listed as activators; active = well fitted activation curve with a large enough effect; inconclusive = small, poorly fitted or top-dose-only effect; inactive = flat fitted curve, though single readings scatter; cell line not stated here;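 further: potency means the concentration at half of the fitted maximal effect; % of control where 0% means no effect; nearly all actives have a fitted effect of over 65% in size; a mitochondrial uncoupler was the plate control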
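Stable cell line treated 24 h with compounds at 5 concentrations (CCCP controls), then fixed and immunostained for PINK1 plus nuclear and cell stains; PINK1 immunofluorescence quantified by laser-scanning microplate cytometry.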
gsp antag – antagonizes gsp, the McCune-Albright syndrome mutation; Potency, µM (doses to about 76.9 µM), inactives show top-dose activity change, negative = inhibition, actives largely listed as inhibitors; 340,000 compounds, 0.4% hits; AID 624288; gsp-mutant cells, cAMP HTRF, 30 min; control for the full effect not named in the record; active = falling curve of any shape with a large fitted effect; inconclusive = falling curve, mostly with a smaller effect; inactive = flat or rising curve; cell line not stated here;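 further: intracellular cAMP measured with PDE inhibitor Ro 20-1724 present during compound exposure; potency means the concentration at half of the fitted maximal effect; on the % scale 0 is the no-effect control and ±100 the full control effect; nearly all actives have a fitted effect of over 65% in size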
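Cells in G418 medium, seeded 16-24 h, 37C; buffer exchange to DPBS + 1 mM CaCl2, 0.5 mM MgCl2, 0.05% BSA; cpds in DMSO + […] (300 uM stock), 30 min 37C; HTRF cAMP detection.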
ClpP mod – qHTS Assay for Activators of ClpP | 340,000 compounds, 1.9% hits | ATP-dependent Clp protease proteolytic subunit (Bacillus subtilis (strain 168)), P80244 | purified B. subtilis ClpP, FRET peptide cleavage, 20 min | Potency, µM (top dose mostly 57.5 µM), for the others: top-dose activity change, negative = active; active = well fitted falling curve with a large enough effect; inconclusive = small, poorly fitted or top-dose-only effect; inactive = no such curve, though single readings can be large or run the other way; further: potency means the concentration at half of the fitted maximal effect; the source files actives as falling curves though it sought activators and does not explain the sign; nearly all actives have a fitted effect of over 65% in size; many hits overshoot -100%
Target sequence (P80244 whole entry, looked up): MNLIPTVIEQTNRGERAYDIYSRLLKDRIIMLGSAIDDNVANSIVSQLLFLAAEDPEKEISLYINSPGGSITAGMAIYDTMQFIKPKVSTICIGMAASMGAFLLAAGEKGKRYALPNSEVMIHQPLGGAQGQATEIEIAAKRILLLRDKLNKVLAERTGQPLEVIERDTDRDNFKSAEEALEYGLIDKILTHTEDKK
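Buffer: 100 mM Tris/HCl pH8, 100 mM KCl, 0.05% low protease BSA, 2.5% glycerol, 0.01% Tween-20. ClpP 10 microg/mL final; 20 min RT; delta FRET normalized to ADEP and DMSO controls.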
Active calls of the source: *; ? = inconclusive; / = no result given; & = joins results of further samples; [ ] = another dose, or the depositor's remark. Rows are unselected; overall some 5.1% were active at least once.

SMILES | gsp ag | D2 ag | Sfp PPTase inh | Menin MLL FP FL | PINK1 modulator | gsp antag | ClpP mod
CC(C)[C@H](NC(=O)c1ccccc1F)C(=O)NCCc1ccccc1 | 20% | 3.7 | 16% | -0.2 | 1.5% | 5% | /
CC(C)(C)c1ccc(S(=O)(=O)n2c(CN3CCOCC3)nc3ccccc32)cc1 | -43%[inhibitor] | -0.4 | 1% | 4.4 | 4.1% | 5% | 2.1%
CC(=O)c1ccc(N2C(=O)C3C(C2=O)C(C(=O)c2ccc(Cl)cc2)N2CCCC32)cc1 (stereo unspecified) | -5% | -4.1 | 22µM* | ? | 0.4% | -11% | 0.5%
CCOC(=O)C1=C(C(=O)OCC)N(CC)CCC1=O | / | -1.6 | / | / | 0.2% | 9% | -5.5%
Cc1cc(NCCCn2ccnc2)n2nc(C)c(-c3ccc(Cl)cc3)c2n1 | -6% | 1.7 | 12% | -1.4 | -4.8%[38.3 µM] | 5% | ?
Oc1ccc(C[C@H]2CNCCN2CCc2cccc(F)c2)cc1 | / | -4.9 | / | / | -0.3% | 2% | 0.3%
CCCS(=O)(=O)N1CCN(C2CCC(C)CC2)CC1 (stereo unspecified) | 7%[15.4 µM] | -0.1 | -16% | 2.8 | 3.2% | 10% | /
Cc1cc(C)cc(NC(=O)C2CCN(c3nc(C)cc(C)n3)CC2)c1 | ? | -2.0 | 10% | -1.8 | -1.8% | 14% | -7.0%
Cc1ccc(CN2C(=O)C3CCCN3c3ncccc32)cc1 (stereo unspecified) | 7% | -3.2 | -3% | 10 | 2.8% | -7% | -14%
Cc1ccc(/C=N/NC(=S)N2CCOCC2)cc1 | -19% | -5.8 | -8% | 0.9 | -0.3% | 16% | 0.7%
C/C(=N\NC(N)=S)c1cc(-c2ccccc2)c(-c2ccccc2)s1 | -49%[inhibitor] | 5.2 | -3% | -3.4 | 5.3% | -3% | /
COc1ccc(Nc2nc(-c3ccc4c(c3)NC(=O)CO4)cs2)cc1 | 12%[15.4 µM] | 5.3 | -12% | -8.3 | 8.3% | -3% | /
CCOC(=O)c1ccccc1NC(=S)N1CC(C)CC(C)C1 (stereo unspecified) | 3% | 2.9 | 14% | -0.6 | 1.2% | -6% | -10.0%
O=C(O)c1cc(-c2ccc(Cl)cc2)n(-c2ccc(F)cc2)n1 | 29% | -7.4 | 8% | -0.1 | 2.3% | -11% | /
c1ccc(-c2nc(N3CCOCC3)c3ccccc3n2)nc1 | 11% | -1.8 | 14µM* | 2.9 | 1.6% | -8% | 2.8%
COc1ccc(CN(C(=O)Cc2cccs2)C(C(=O)NC2CCCC2)c2ccncc2)cc1 (stereo unspecified) | -25% | -2.8 | 2% | 1.5 | 1.9%[38.3 µM] | -4% | -0.2%
CCOP(=O)(OCC)C(Nc1ccccn1)c1ccccc1 (stereo unspecified) | -1% | -5.0 | -5% | 1.2 | -1.2% | 2% | -11%
COc1ccccc1NS(=O)(=O)c1cc(NC(=O)C2CCCO2)ccc1C (stereo unspecified) | 7%[15.4 µM] | -6.6 | / | / | 0.8% | -12% | -0.6%
CN(C)/N=C/c1cc(Cl)cc([N+](=O)[O-])c1O | -2%[15.4 µM] | -13 | 13% | 30[activator] | -0.7% | -6% | -5.8%
COc1ccc(-n2c(=O)c3ccccc3n(CC(=O)NCc3ccco3)c2=O)cc1 | 1%[15.4 µM] | -3.7 | -3% | 4.5 | -1.0% | 4% | /
Cc1cc2nc(CO)[nH]c2cc1C | ? | -8.8 | 12% | -0.8 | 0.7% | 3% | 1.2%
O=C(CN(Cc1ccccc1)S(=O)(=O)c1ccc(Br)cc1)N/N=C/c1ccccc1C(=O)O | 9% | -3.3 | 19% | 5.9 | 2.2% | 1% | -1.0%
O=C(NCc1ccc(Cl)cc1)c1ccc2ccccc2n1 | 7% | -2.4 | -6% | -1.8 | -1.5% | -11% | /
Cc1cc(C)n2nc(C(=O)OCC(=O)N3C(C)CCCC3C)nc2n1 (stereo unspecified) | -22% | 0.0 | / | / | 4.9% | 12% | -0.4%
COc1ccc(OC)c(C(=O)NC(CC(N)=O)c2ccc(N3CCCCCC3)c([N+](=O)[O-])c2)c1 (stereo unspecified) | / | -3.2 | 4% | -14 | 0.1% | -9% | ?

Continued:
SMILES | gsp ag | D2 ag | Sfp PPTase inh | Menin MLL FP FL | PINK1 modulator | gsp antag | ClpP mod
O=C(N/N=C/c1cccc(Cl)c1)C(c1ccncc1)N1CCOCC1 (stereo unspecified) | -5%[15.4 µM] | -3.1 | 12% | -2.7 | 0.8% | 4% | /
Cc1nn2c(c1-c1ccccc1)NC1=C(C(=O)CCC1)C2c1ccccc1 (stereo unspecified) | 3% | 0.7 | 21% | 0.0 | 19%[38.3 µM] | -8% | 8.9µM*
NC(=O)c1ncn([C@@H]2O[C@H](CNCc3ccc(OCC(=O)Nc4ccccn4)cc3)[C@@H](O)[C@H]2O)n1 | / | -3.7 | / | / | -0.9% | 10% | -0.5%
CCCn1cc(SCC(=O)NCc2ccc3c(c2)OCO3)c2ccccc21 | 8% | 1.7 | 8% | 3.0 | -0.8% | -22% | 1.4%
COc1ccc(Nc2cc(Nc3cc(OC)c(OC)c(OC)c3)ncn2)cc1 | 0%[15.4 µM] | 3.0 | 18% | 2.0 | 4.0% | 24% | 0.0%
CCOc1ccc(CNC(=O)c2ccc(Sc3ccc(C)cc3)c(NC(C)=O)c2)cc1OC | 26% | 2.2 | 10% | 2.3 | -1.5% | -21% | -8.9%
CC(=O)Nc1ccc(S(=O)(=O)N(C)CC(=O)Nc2cccc(S(=O)(=O)N3CCCC3)c2)cc1 | 19%[15.4 µM] | -0.9 | / | / | 2.1% | -9% | /
O=C1NC(=Nc2cccc(O)c2)S/C1=C\c1cccc([N+](=O)[O-])c1 | 7%[15.4 µM] | -1.2 | 6% | -13 | 4.0% | -2% | -0.7%
CS(=O)(=O)Nc1cccc(NC(=O)c2cccc3c(-c4cccnc4)coc23)c1 | / | 14 | / | / | -0.7% | / | 1.4%
COC(=O)CCCC1=CC2=C(c3ccccc3)C(=O)C(C)(OC(=O)C3CCCC3)C(=O)C2=CN1c1ccc(OC)cc1 (stereo unspecified) | 17% | 9.5 | -7%&6% | 5.6[11.7 µM] | 1.4% | 1% | -1.0%
CCCCC1(C)Nc2ccccc2-c2nc3ccccc3n21 (stereo unspecified) | 19% | -1.3 | 10% | -2.0 | 8.0%[38.3 µM] | -19% | ?
Cc1nc2c(=O)oc3ccccc3c2n1-c1ccccc1 | -5% | -3.5 | 5% | 0.7 | 3.5% | 7% | 0.5%
Cc1cc(C(=O)CSc2nc(N)cc(=O)[nH]2)c(C)n1-c1ccc(OC(F)F)cc1 | 1%[15.4 µM] | 2.9 | 6% | 0.6 | 5.0% | -13% | 32µM*
S=C(NCc1ccco1)N/N=C/c1ccccc1Cl | 1% | 0.3 | -1% | -1.2 | 4.1% | -13% | -26%
Cn1cc(/C=N/NC(=O)COc2ccccc2[N+](=O)[O-])c2ccccc21 | -32%[inhibitor] | -6.0 | 35µM* | 0.1 | 6.6% | 39%[activator] | -0.1%
COc1ccc(-c2cnc3c(NC(C)=O)cc(-c4ccc(S(C)(=O)=O)cc4)cn23)cc1OC | / | 10 | / | / | 1.4% | / | -16%
O=C(CCNS(=O)(=O)c1ccc(F)c(F)c1)NCCN1CCOCC1 | -8% | -3.5 | / | / | 1.5% | 1% | 1.2%
COc1ccc(NC(=O)N2CCC3(CC2)CCN(C(=O)c2csnn2)CC3)cc1 | / | / | -2% | -0.8 | -0.1% | / | /
CSc1ccccc1C(=O)OCC(=O)N1CCCCCC1 | -13% | -0.5 | / | / | 2.4% | 1% | /
COC(=O)c1cccc(NC(=O)NC23CC4CC(CC(C4)C2)C3)c1 | 0% | 0.7 | 14% | 0.2 | 1.2% | ? | -1.9%
CC(C)c1ccc(S(=O)(=O)c2cc3cc(Br)ccc3oc2=O)cc1 | 23% | 2.0 | 9% | -1.6 | 0.4% | 3% | 12%
CCCNC(=O)c1c(O)c2c([nH]c1=O)CCCC2 | 13%[15.4 µM] | 0.1 | -22% | -1.5 | -0.7% | 2% | /
C=CCN1C(=O)CN=C1Nc1ccc(OC)cc1OC | -42%[inhibitor] | -1.5 | 11% | -1.6 | 0.4% | 4% | -4.2%
COc1ccc(CCN(C)CC(=O)Nc2cc(C)nc3ccccc23)cc1OC | 3%[15.4 µM] | -2.5 | 79µM* | -4.9 | -1.2% | -9% | /
C/C(=N\NC(=O)c1ccc(CSc2nncn2C)cc1)c1ccc(Cl)cc1 | 16% | 1.8 | 13% | 0.7 | 3.0% | -6% | /

(list continues)
SMILES | gsp ag | D2 ag | Sfp PPTase inh | Menin MLL FP FL | PINK1 modulator | gsp antag | ClpP mod
C/C(=N/NC(=O)CN1CCN(Cc2ccccc2Cl)CC1)c1cccnc1 | 10% | 0.5 | 6% | -2.9 | -0.7% | -1% | 0.1%
Cc1ccc(/C=N/c2sc3c(c2C(N)=O)CCCC3)o1 | 18% | -3.4 | -7% | -1.1 | 1.6% | -17% | 1.0%
COc1ccc(COC(=O)CN2C(=O)NC3(CC(C)CC(C)(C)C3)C2=O)cc1F (stereo unspecified) | -34%[inhibitor] | -2.6 | / | / | -2.5% | 2% | /
CCOc1ccc(C(=S)NC2CCCCC2)cc1OC | -20% | 0.0 | 45µM* | 6.5 | 0.5%[38.3 µM] | -5% | -2.3%
O=C(NN1CCOCC1)c1cc(-c2cccc(Cl)c2)nc2ccccc12 | 6% | -1.2 | -2% | 2.0 | -2.2%[38.3 µM] | -7% | -2.6%
COc1ccc(Br)cc1S(=O)(=O)NCCCN1CCOCC1 | 1% | 3.1 | 14% | -0.2 | 1.6% | 12% | 0.0%
